UUG fidelity: yeast start codon fidelity modulation; AID 602363; activity score, % at 18.7 µM; hit rate 0.13% among 350,000; S. cerevisiae UUG-firefly luciferase reporter, luminescence/redox ratio;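 active = replicate mean at a twofold rise or more, about +100% in these data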;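 note: firefly luciferase made from a UUG start codon reports start codon fidelity; reporter light over untreated wells divided by growth signal over untreated wells; some hits fall short of that in this replicate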
MT1-MMP act inh: blocks activation of human MT1-MMP; HT1080 RFP-PRO-GFP cells, GFP/RFP ratio fluorescence, overnight; percent of plate control window, DMSO zero; GFP/RFP ratio change, % at 20 µM; hit rate 0.061% among 360,000; P50281; AID 651647;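 active = GFP/RFP ratio change of at least 30% with cell ATP level not reduced by more than half and red fluorescence within 50% of control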; note: strong numbers were not always called active
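system = RFP-PRO-GFP reporter HT1080 cells | dosing = 20 µM single dose, 1% DMSO | timing = overnight cell settling, then overnight compound exposure, 37 °C, 5% CO2 | read-out basis = GFP/RFP fluorescence ratio | controls = DMSO and RFP-L50D-GFP cell wells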
eIF4H inh: inhibitors of RNA binding by human eIF4H | Q15056 | inhibition, % at 35 µM | eIF4H fluorescence polarization binding assay | hit rate 0.94% among 290,000;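 active = 50% or more with normal probe brightness, or confirmed in later tests; about a fifth of its hits are not listed in these tables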;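 note: calls also rest on retests at 20 µM and on dose response follow-up; 0% = protein and probe with vehicle and 100% = probe without protein; strong numbers were not always called active; many hits fall short of the cut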
HIV Env fusion: blocks HIV Env-driven cell-cell fusion | hit rate 1.1% among 360,000 | HeLa-JRFL Env/CEM21 cell fusion, luciferase | inhibition, % at 12.3 µM;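 active = mean replicate inhibition score of at least 50 and every replicate individually at or above 50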;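 note: 0% = plate neutral controls and 100% = maraviroc near 300 nM; one replicate is shown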
CSC inhib: blocks cancer stem cells; cancer stem cell-like cells viability, luminescence; inhibition, % at 7.5 µM; hit rate 1.1% among 300,000; AID 2717;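 active = mean at 75% or more and at least half the replicates too; tested in HMLE shEcad cells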;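 note: 0% = median of negative and 100% = median of positive control wells; the first replicate is given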
Rce1 inh: blocks yeast Ras-converting enzyme; Q03530; yeast membranes, quenched prenylated peptide cleavage fluorescence; calls only; hit rate 0.27% among 290,000;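 active = fall in fluorescence gain of 50% or more versus controls, with final raw signal at or below 3038400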;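 note: plate controls were neutral control wells for no effect and wells lacking membranes for full effect; tested at 10 µM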
PABP FP inh: blocks human PABP binding to poly(A) RNA; hit rate 1% among 290,000; AID 2014; fluorescence polarization; inhibition, % at 35 µM;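 active = 50% or more with normal probe brightness, or confirmed in later tests; about a fifth of its hits are not listed in these tables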;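 note: calls also rest on retests at 20 µM and on dose response follow-up; controls were probe without protein and protein plus probe with vehicle; some compounds called inactive have numbers as strong as hits; many hits fall short of the cut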
Target sequence (P11940 whole entry, looked up): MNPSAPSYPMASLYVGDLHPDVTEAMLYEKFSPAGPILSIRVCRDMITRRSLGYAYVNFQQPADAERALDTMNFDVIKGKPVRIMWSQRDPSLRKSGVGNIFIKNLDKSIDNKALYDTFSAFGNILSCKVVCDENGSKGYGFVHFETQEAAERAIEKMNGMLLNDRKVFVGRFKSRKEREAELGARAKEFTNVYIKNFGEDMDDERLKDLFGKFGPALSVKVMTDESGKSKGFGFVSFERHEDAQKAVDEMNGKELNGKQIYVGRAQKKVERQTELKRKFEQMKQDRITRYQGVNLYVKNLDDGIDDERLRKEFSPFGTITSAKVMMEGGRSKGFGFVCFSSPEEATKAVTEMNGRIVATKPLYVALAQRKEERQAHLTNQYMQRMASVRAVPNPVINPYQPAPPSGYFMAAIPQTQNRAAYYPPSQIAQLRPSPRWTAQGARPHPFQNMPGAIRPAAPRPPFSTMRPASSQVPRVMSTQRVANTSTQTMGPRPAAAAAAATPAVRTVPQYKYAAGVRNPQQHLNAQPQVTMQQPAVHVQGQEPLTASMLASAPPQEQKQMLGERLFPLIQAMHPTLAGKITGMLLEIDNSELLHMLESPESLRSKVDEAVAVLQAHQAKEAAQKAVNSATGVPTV
MT1-MMP act inh RFP: further read-out of MT1-MMP act inh, marked with its call; RFP signal change, %; measured here: RFP expression control read;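 0 = vehicle wells; hits needed this value within 50% of zero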
The depositor's hits bear a star; i = inactive; · = no result given; & = joins results of further samples.

Values run as follows: UUG fidelity	MT1-MMP act inh	MT1-MMP act inh RFP	eIF4H inh	HIV Env fusion	CSC inhib	Rce1 inh	PABP FP inh
COc1ccc(C(=O)N2CCN(C(=O)C3COc4ccccc4O3)CC2)cc1OC (stereo not drawn)
→ -15	-4	-1	-6	2	-12	i	-5
Clc1ccc(CSc2nnc3c(n2)[nH]c2ccccc23)cc1
→ -13	-1	-2	2	20	-1	i	-2
CN1CCC(NC(=O)Nc2cccc(C(F)(F)F)c2)CC1
→ -15	2	4	-5	9	-28	i	-5
NC(=O)c1ccccc1OCc1cccc2ccccc12
→ -16	-2	-4	-1	7	3	i	-10
CC1Sc2ccc(S(=O)(=O)N3CCC(C(=O)NCCc4ccccc4)CC3)cc2NC1=O (stereo not drawn)
→ 3	5	-14	-7	12	-1	i	-5
O=c1[nH]c(C2CCCN(S(=O)(=O)c3ccc(F)cc3)C2)nc2c1nnn2Cc1ccc(F)cc1 (stereo not drawn)
→ -10	2	2	-6	-26	-9	i	-4
O=C(c1cc(-c2ccc(Br)cc2)nc2ccccc12)N1CCN(c2ccccc2O)CC1
→ -27	0	-4	·	18	·	i	·
O=C(O)CCc1ccc(S(=O)(=O)Nc2ccccc2C(=O)NCCc2ccccc2)cc1
→ 19	0	3	1	-28	8	i	13
CCOCCCNC(=O)/C(C#N)=C/c1ccc(Cl)c([N+](=O)[O-])c1
→ -4	-1	4	-7	-36	67	i	3
COc1cccc(CCc2nnc(CCC(=O)N(C)C3CC(C)(C)NC(C)(C)C3)o2)c1
→ -6	-1	1	14	9	-4	i	-2
CCOc1ccc(C2Nc3ccc4ccccc4c3-c3c2c(=O)oc2ccccc32)cc1 (stereo not drawn)
→ ·	-8	-7	-4	22	28	i	8
COc1ccc(N2CCN(C(=O)C(C)(C)Oc3ccc(Cl)cc3)CC2)cc1
→ -4	-4	-9	0	9	-5	i	-2
CC(C)CC(=O)Nc1ccccc1N1CCN(c2ccccc2)CC1
→ ·	-5	-2	-8	12	-10	·	-6
COc1cc(OC)c(OC)cc1/C=N/NC(=O)c1cnccn1
→ ·	1	1	-4	22	-10	i	-15
CCC(C)NC(=O)C1CC(c2cccc(OC)c2)=NO1 (stereo not drawn)
→ 2	-3	-3	-4	-72	-9	i	-10
O=C(NC(=S)Nc1ccc(Cl)cc1)c1cncc(Br)c1
→ ·	4	-1	·	10	1	i	·
COc1ccc(C2=NN(CCC(=O)NCC3CCCO3)C(=O)CC2)cc1 (stereo not drawn)
→ -12	-13	-5	-9	-3	-1	i	4
CC(C)(C(=O)N1CCC1(C)C(=O)Nc1ccccc1Br)c1ccccc1 (stereo not drawn)
→ 9	5	-1	·	34	·	·	·
Cc1ccc(NC(=O)CC(C(=O)O)c2ccccc2)cc1 (stereo not drawn)
→ -7	4	4	-11	-5	16	i	20
Cn1nc(C(=O)NCc2ccc(Cl)cc2)c2c1-c1ccccc1S(=O)(=O)C2
→ 2	-4	2	·	-5	-7	i	·
COC(=O)Nc1csc2c1NC(=O)CCCC2
→ ·	6	5	-3	-6	-9	i	4
O=C(N=NC(=O)c1ccc2c(O)n(CC3CCCO3)c(O)c2c1)c1cccnc1 (stereo not drawn)
→ ·	-3	4	4	-31	-2	i	8
Cc1ccc(OCCNC(=O)c2ccco2)cc1C
→ -11	4	4	-2	·	-5	i	-11
O=C(NNC(=O)c1ccncc1)c1ccncc1
→ -6	3	-2	8	-44	-7	i	-10
CCS(=O)(=O)N1Cc2ccccc2CC1C(=O)OCC(=O)Nc1ccc(SC(F)F)cc1 (stereo not drawn)
→ -3	4	5	5	19	-12	i	-6
CCCCNC(=O)c1ccc(CS(=O)(=O)c2cccc(C(F)(F)F)c2)o1
→ -8	2	4	-7	4	0	i	-3
CCN1CCN(C2=C(NS(=O)(=O)c3ccc(C)cc3)C(=O)c3ccccc3C2=O)CC1
→ 9	-1	4	2	-2	9	i	16
O=C(CSc1cccc[n+]1[O-])Nc1ccccc1C(F)(F)F
→ ·	-2	5	·	8	-4	·	·
CC(=O)c1ccccc1NC(=O)COC(=O)/C=C/c1ccc(C)o1
→ -6	5	-1	8	-4	-3	i	-6
CCC1CCCCN1CC(C)(C)NS(=O)(=O)c1ccccc1 (stereo not drawn)
→ -16	1	2	0	11	-9	i	-2
CC1(C)CC2CC(C)(CN2C(=O)c2cc(-c3ccccc3)on2)C1 (stereo not drawn)
→ 2	-2	-4	-2	14	27	i	-2
Cc1nc(Cc2nnc(SCC(=O)N3c4ccccc4NC(=O)C3(C)C)o2)cs1
→ -11	1	-3	·	-6	·	·	·
COc1ccc(C2CC(C(F)(F)F)n3nc(C(=O)Nc4ccc5c(c4)OCO5)cc3N2)cc1 (stereo not drawn)
→ 0	-1	-1	-1	·	64	i	3
CC(=O)Nc1ccc(S(=O)(=O)N[C@@H](C)C(=O)N2CCN(c3ccccn3)CC2)cc1
→ -21	12	5	·	-3	-7	i	·
C=CCNc1cc(=O)n(Cc2ccccc2)c(=O)[nH]1
→ ·	1	1	·	-4	-11	i	·
O=C(N/N=C/C=C/c1ccco1)c1cccnc1
→ 5	-7	3	64*	·	-8	i	56*
O=C(N/N=C/c1ccc2c(c1)OCO2)C(=O)N1CCCC1
→ -16	2	2	-4	-12	-15	i	-4
O=C(Nc1ccccc1)OC1CC2CC1C1CCCC21 (stereo not drawn)
→ -11	2	0	4	-49	35	i	1
Cc1ccccc1OCCCC(=O)Nc1nncs1
→ -3	1	-3	10	-20	-16	i	10
O=C(Cc1ccccc1)Nc1ccccc1C(=O)Nc1ccccc1
→ ·	3	1	-6	0	8	i	5
C[C@@H]1CN([C@H](C)CO)C(=O)CCCn2nncc2CO[C@@H]1CN(C)S(=O)(=O)c1ccc(Cl)cc1
→ 3&19&7	1	3	·	-3	·	·	·
COC(=O)C1=C(C)OC(N)=C(C#N)C1C1CCCCC1 (stereo not drawn)
→ -18	-2	1	0	·	-7	i	-14
Cc1ccc(CN2CCc3[nH]c(=S)[nH]c(=O)c3C2)cc1
→ -14	-2	4	-7	11	0	i	2
COc1ccc(NC(=O)C2CCCN2C(=O)NC2CCCCC2)cc1OC (stereo not drawn)
→ -13	8	4	-10	2	-22	i	-3
CCOc1ccc(N2C(=O)CC(N(Cc3ccco3)C(=O)CCC(=O)O)C2=O)cc1 (stereo not drawn)
→ -15	-3	-3	4	-1	5	i	-2
Cn1c(COc2ccc(Cl)cc2)nc2ccccc2c1=O
→ -13	-9	5	7	-3	-25	i	14
COc1ccccc1Nc1ccncc1[N+](=O)[O-]
→ ·	0	0	-7	-1	-4	i	-11
CNC(=O)c1ccc(CNC(=O)OCc2ccccc2)cc1
→ ·	-1	1	-2	-9	-11	i	-4
Cc1ccc(OCCNC(=O)CCNS(=O)(=O)c2ccc(Br)cc2)cc1
→ -3	0	-3	·	20	5	i	·
Cc1cccc(N(CC(=O)N2CCc3ccccc3C2)S(C)(=O)=O)c1C
→ -7	·	·	9	0	-20	i	-1
CCc1c(C)[nH]n(-c2nc(-c3cccc([N+](=O)[O-])c3)cs2)c1=O
→ -3	3	-5	9	·	11	i	2
O=[N+]([O-])c1ccc(-c2cn(-c3ccccc3)c(=S)[nH]2)cc1
→ -10	16	1	-10	14	-7	i	-10
COc1cc2[nH]c(=S)nc(NCc3ccc(C)cc3)c2cc1OC
→ -14	1	-3	3	0	-5	i	20
CC(C)c1nnc(NC(=O)CSc2nc3ccccc3s2)s1
→ -20	-1	-3	-5	-14	-10	i	4
CCN(CC)C(=O)c1sc(NC(=O)c2cccc([N+](=O)[O-])c2)c(C#N)c1C
→ ·	-2	-14	3	-2	8	i	-3
Cc1ccc(N(Cc2cc(=O)[nH]c3ccccc23)C(=O)c2ccco2)cc1
→ -1	-8	-4	4	-68	4	i	6
O=C(NCCc1ccccn1)c1ccc(OC2CCN(CCc3ccccc3)CC2)cc1
→ -15	2	-3	-22	-7	-31	i	2
COc1ccc(-n2cnc3scc(-c4ccccc4)c3c2=O)cc1
→ -1	-11	-4	-16	-14	9	i	7
CCOc1ccc(N(CC(=O)Nc2cc(Cl)ccc2C)S(C)(=O)=O)cc1
→ -24	-1	-3	1	33	27	i	10
O=C(NCc1cccs1)Nc1cc(Cl)ccc1Cl
→ ·	-1	3	0	-2	-19	i	0

Continued:
Values run as follows: UUG fidelity	MT1-MMP act inh	MT1-MMP act inh RFP	eIF4H inh	HIV Env fusion	CSC inhib	Rce1 inh	PABP FP inh
CCOc1ccc(NC(=S)NC(=O)c2cncc(Br)c2)cc1
→ ·	-5	-4	·	7	-11	i	·
CC(C)NC(=O)C1(C)CCN1Cc1ccc(C(F)(F)F)cc1 (stereo not drawn)
→ -12	5	5	·	-19	·	·	·
COc1ccc(C(=O)NCc2nc(C)c(C)s2)cc1OC1CCN(C(C)C)CC1
→ -14	-3	0	-6	·	-12	i	2
O=C(c1ccccc1)c1nn(-c2ccccc2)c(=O)cc1C(F)(F)F
→ -9	-5	-1	-5	·	4	i	-8
COn1cnnc1-c1ccccc1
→ -13	-1	-4	-8	·	-15	i	28
O=C(CSc1ncnc2sccc12)Nc1ccccc1F
→ ·	0	2	3	2	2	i	4
CSCC(=O)N1CCC(CCC(=O)NC2CC2)CC1
→ -14	4	12	-2	-7	15	i	-1
CCOc1ccc(NC(=O)c2cc(C)nc3ccccc23)cc1
→ ·	1	5	-11	1	-5	i	13
Cc1sc(NC(=O)c2ccco2)c(CN2CCN(c3ccccc3)CC2)c1C
→ -12	-11	-11	2	63*	53	i	33
CC(C)OCCCNC(=O)c1ccc(NC(=O)C2=CSCCO2)cc1
→ -12	2	1	-12	-3	8	i	-7
Cc1ccc(NC(=O)c2nnn(CC(=O)Nc3ccccc3)c2N)cc1C
→ -17	8	-2	-7	2	7	i	-1
CCOC(=O)c1c(C)nc2ncccn12
→ -24	0	5	-5	·	-11	i	-1
Nc1nc(CSc2nc3ccccc3[nH]2)cs1
→ -16	-5	0	-2	·	-8	i	29
Cc1c(C(=O)N2CCN(C(=O)c3ccccc3)CC2)oc2ccc(F)cc12
→ -11	-5	3	·	-10	·	·	·
CN1C(=O)C(Cc2cnc[nH]2)NC1=S (stereo not drawn)
→ -12	5	4	3	10	-14	i	4

Random excerpt: three entries already listed
Values run as follows: UUG fidelity	MT1-MMP act inh	MT1-MMP act inh RFP	eIF4H inh	HIV Env fusion	CSC inhib	Rce1 inh	PABP FP inh
CN1CCC(NC(=O)Nc2cccc(C(F)(F)F)c2)CC1
→ -15	2	4	-5	9	-28	i	-5
Clc1ccc(CSc2nnc3c(n2)[nH]c2ccccc23)cc1
→ -13	-1	-2	2	20	-1	i	-2
COc1ccc(C2CC(C(F)(F)F)n3nc(C(=O)Nc4ccc5c(c4)OCO5)cc3N2)cc1 (stereo not drawn)
→ 0	-1	-1	-1	·	64	i	3

Bioassay records from PubChem BioAssay.
